# Mtb growth: M. tuberculosis H37Rv growth inhibitors, H37Rv strain (AID 1626); inhibition, % at 10 µM; hits with a dose series show IC50 in µM; M. tuberculosis H37Rv growth inhibition; higher % means a stronger effect; 220,000 tested, 0.95% active;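 active = confirmed in a dose series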;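 note: bacteria incubated seven days before Alamar blue readout; 0% = bacteria only wells and 100% = bacteria with antibiotic wells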
# Mtb bLac sens: beta-lactam sensitization of Mtb H37Rv | M. tuberculosis H37Rv growth with meropenem, percent inhibition; hits of this screen are not shown here | inhibition, % at 25 µM | 330,000 tested, 0.27% active;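 active = about 74% or more and at least 40 points above the plate without the antibiotic, then above 30% in a dose series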;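 note: growth measured after seven days incubation then overnight dye step; 0% = bacteria only wells and 100% = bacteria with antibiotic; twin plates without the antibiotic show which effects depend on it; some results filed as inactive read as strong as hits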
# Arbovirus inh: arbovirus infection inhibition | inhibition, % at 10 µM | 200,000 tested, 0.37% active | AID 1251 | arbovirus infection cell-based antiviral screen;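 active = inhibition from about 30%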;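 note: bluetongue infection of BSR cells; cell survival read as ATP light after 72 h; 0% = infected wells without compound and 100% = uninfected wells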
# YopH inh: inhibitors of Yersinia enterocolitica YopH tyrosine phosphatase; fluorescence Ex485/Em525; inhibition, %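 (about 10 µM by stock and volumes)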; 140,000 tested, 0.16% active;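 active = inhibition of 50% or more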;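 note: controls were vehicle for no effect and minimum signal wells for full effect; inactives centre near -20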
# RecA intein inh: inhibitors of M. tuberculosis RecA intein splicing; P9WHJ3; cell-free RecA intein splicing, fluorescence; inhibition, %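 (about 9 µM by stock and volumes)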; 290,000 tested, 0.75% active; in the data active = inhibition above about 30%;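 note: 0% = vehicle wells and 100% = reference inhibitor control wells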
# Target sequence (P9WHJ3 whole entry, looked up): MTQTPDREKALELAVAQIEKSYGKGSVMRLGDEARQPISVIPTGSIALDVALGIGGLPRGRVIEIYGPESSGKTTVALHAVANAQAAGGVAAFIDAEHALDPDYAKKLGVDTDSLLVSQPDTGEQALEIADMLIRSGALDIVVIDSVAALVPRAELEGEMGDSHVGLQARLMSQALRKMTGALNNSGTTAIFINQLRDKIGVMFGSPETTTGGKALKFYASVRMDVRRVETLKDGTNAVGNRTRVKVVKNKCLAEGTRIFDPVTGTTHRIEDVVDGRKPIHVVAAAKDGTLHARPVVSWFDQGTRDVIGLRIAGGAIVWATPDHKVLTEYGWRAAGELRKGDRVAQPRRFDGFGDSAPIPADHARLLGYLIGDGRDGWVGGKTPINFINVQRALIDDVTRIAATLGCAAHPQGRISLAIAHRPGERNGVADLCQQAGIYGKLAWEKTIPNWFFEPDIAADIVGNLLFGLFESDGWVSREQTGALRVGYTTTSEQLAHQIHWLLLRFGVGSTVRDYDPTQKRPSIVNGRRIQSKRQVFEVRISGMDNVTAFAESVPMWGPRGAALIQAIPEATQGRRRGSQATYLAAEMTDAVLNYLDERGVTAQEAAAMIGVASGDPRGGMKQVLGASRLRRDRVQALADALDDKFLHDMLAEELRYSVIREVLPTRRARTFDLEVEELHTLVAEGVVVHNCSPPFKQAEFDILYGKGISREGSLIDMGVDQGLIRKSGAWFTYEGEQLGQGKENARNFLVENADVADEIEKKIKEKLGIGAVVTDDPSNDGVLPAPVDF
# Arbovirus inh repeat: also measured in Arbovirus inh; calls as there; inhibition, %; measured here: 10K subset replicate screen; many hits read low in the repeat;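 first of two repeat runs on a subset; 0% = infected and 100% = uninfected wells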
# * = called active by the depositor; x = not tested or not shown.
SMILES,Mtb growth,Mtb bLac sens,Arbovirus inh,YopH inh,RecA intein inh,others
Cc1ccc(/C=C/C(=O)NCc2cccs2)c(C)c1,2%,-2,3,x,0.1,
COc1cc(/C=C(\C#N)c2nc3ccccc3[nH]2)ccc1Oc1ccc([N+](=O)[O-])cn1,3%,20,4,-22,-2.5,
CC(=O)Nc1ccc(NC(=O)COC(=O)c2c3c(nc4ccccc24)CCN(Cc2ccccc2)C3)cc1,27%,57,18,-46,1.5,
CCCC(=O)Nc1ccc(-c2csc(N/N=C\c3ccncc3)n2)cc1,40%,13,x,x,-1.3,
O=C(COc1ccccc1)Nc1ccc(S(=O)(=O)Nc2ncccn2)cc1,-5%,-14,10,x,0.4,
CC1CCCCC12NC(=O)N(CC(=O)Nc1ccccc1N1CCOCC1)C2=O (configuration not stated),-2%,-8,-5,x,1.5,
CCOc1ccc(OCc2ccc(C(=O)O)o2)cc1,-12%,-3,12,-44,0.5,
COc1ccc(C(=O)Nc2ccc(N3CCCC3)cc2)cc1,5%,2,-1,-12,-1.9,
CCOc1ncccc1C(=O)N(C)CC1COc2ccccc2O1 (configuration not stated),-18%,0,5,-12,0.0,
COc1ccc(CCC(=O)NCc2cn3ccccc3n2)cc1,8%,19,x,x,-1.3,
NC(=S)NNC(=O)c1ccccc1,-2%,-4,2,-42,-2.9,
O=C1C2CC=C(Cl)CC2C(=O)N1CNc1ccccn1 (configuration not stated),x,-8,-8,0,-1.2,
N#C/C(=C\c1cccnc1)C(=O)Nc1ccc(SC(F)F)cc1,x,-5,x,x,-4.2,
CN1CCN(S(=O)(=O)c2ccc3c(c2)OCCO3)CC1,-10%,-2,3,3,-6.2,
COc1ccc(S(=O)(=O)CCC(=O)Nc2c(C)cccc2C)cc1,x,-2,x,x,1.6,
O=C(Nc1cccc(Cl)c1)Nc1ccc2c(c1)OCO2,-7%,-2,2,-12,-1.0,
CCCCCCc1ccc(OC(=O)c2ccncc2)cc1,x,95,x,x,15,
CCOC(=O)Cn1c2ccc(C)cc2c2nc(C)sc21,1%,99,3,x,1.2,
Cc1ccccc1-n1c(-c2cccnc2)n[nH]c1=S,2%,-21,3,-63,-2.6,
Cc1nn(C)cc1CN(C)C(=O)CC12CC3CC(CC(C3)C1)C2,1%,-2,-1,-21,1.4,
CCn1c(CNc2ccc(OC)cc2)nnc1SCC(=O)c1ccc(OC)cc1,63%,-5,-9,-95,7.2,
CC1(C)CC(=O)C2=C(C1)N(CC1CCCO1)C(=O)C2(NC(=O)c1cccnc1)C(F)(F)F (configuration not stated),0%,-7,-1,-45,0.9,
O=C(COc1ccccc1Cl)N1CCCC1,-7%,6,1,-1,0.7,
COc1ccc(OC)c(C(=O)CSc2nnc(-c3cccs3)n2C)c1,-3%,-8,3,-36,-1.1,
Cc1[nH]c(=O)[nH]c(=O)c1/C=N/NC(=O)[C@H](C)N,10%,-5,x,x,-4.3,
OCCN1CCN(Cc2cc(Br)cc(Br)c2O)CC1,5%,-1,-6,0,-2.7,Arbovirus inh repeat=-2
COc1ccc(CN2CCN(CC=C(C)C)C(CCO)C2)cc1Cn1cccn1 (configuration not stated),-1%,-1,-7,x,2.7,
Cc1cnc(NC(=O)CN2CCN(c3ccccc3F)CC2)s1,2%,21,5,-36,-1.4,
COc1ccc(S(=O)(=O)NC2(C(F)(F)F)N=C3SCCN3C2=O)cc1 (configuration not stated),0%,-1,3,-6,0.8,
CCCS(=O)(=O)N1CCC(C(=O)NCCN2CCC(Cc3ccccc3)CC2)CC1,2%,-10,-3,-23,-3.7,
Cc1ccc(C(=O)NCCCNC(=O)c2ccccc2F)cn1,x,-14,x,x,0.1,
CC(=O)Nc1nc2c(c3c1c(=O)oc1ccccc13)CCCC2,-4%,x,2,-7,x,
CS(=O)(=O)c1ccc(Cl)c(NC(=O)COC(=O)/C=C/c2cnc3ccccc3n2)c1,-10%,4,x,x,-26,
CC1CCC2(CC1)NC(=O)N(CC(=O)c1ccc(Cl)s1)C2=O (configuration not stated),x,-1,x,x,-2.2,
O=C(COc1ccccc1)Nc1ccc(Cl)cc1Cl,-7%,19,-6,x,0.2,
OCC#CCSc1nnc(-c2ccccc2Br)o1,0%,33,-1,-24,2.7,

# Sorted by SMILES length (high to low): part of the list above.
SMILES,Mtb growth,Mtb bLac sens,Arbovirus inh,YopH inh,RecA intein inh,others
CS(=O)(=O)c1ccc(Cl)c(NC(=O)COC(=O)/C=C/c2cnc3ccccc3n2)c1,-10%,4,x,x,-26,
Cc1cnc(NC(=O)CN2CCN(c3ccccc3F)CC2)s1,2%,21,5,-36,-1.4,
OCCN1CCN(Cc2cc(Br)cc(Br)c2O)CC1,5%,-1,-6,0,-2.7,Arbovirus inh repeat=-2

# Following part.
SMILES,Mtb growth,Mtb bLac sens,Arbovirus inh,YopH inh,RecA intein inh,others
Cc1ccc(CCC(=O)Nc2ccc(CC(=O)O)cc2)o1,x,-6,x,x,2.6,
O=C(Nc1cc(C(F)(F)F)ccc1N1CCOCC1)c1ccc(Cl)nc1,-7%,65,7,-3,-1.7,
COc1ccc(NC(=O)Nc2c[nH]c(=O)[nH]c2=O)cc1OC,x,1,x,x,-5.3,
CCCc1c(NC(=O)Nc2ccc(F)cc2)cnn1-c1ccc(Cl)cc1,-9%,-12,x,x,-0.2,
Cc1ccc2[nH]c(=O)c3cc(C(=O)NC(C)C)sc3c2c1,x,8,x,x,-3.2,
CN(C)c1nc(N(C)C)nc(N2CC(=O)N(c3ccccc3)C2=N)n1,-12%,-2,-1,x,-1.8,
CCn1ncc(S(=O)(=O)NCc2ccccc2Cl)c1C,x,9,x,x,2.8,
CCOCCCNc1nc2c(C)cccn2c(=O)c1/C=C1\SC(=S)N(C(C)CC)C1=O (configuration not stated),-8%,4,x,x,-4.1,
CCC(C)NS(=O)(=O)c1ccc(-c2csnn2)s1 (configuration not stated),1%,1,-5,3,-1.1,
Cc1ccc(C(=O)N/N=C/c2c(O)ccc3ccccc23)cn1,x,0,x,x,-7.8,
CCCC1CCC(c2ccc(/C(N)=N/O)cc2)CC1 (configuration not stated),-1%,-1,-25,x,x,
CCOC(=O)C1=C(C)NC(=O)NC1c1c(O)ccc2ccccc12 (configuration not stated),2%,3,3,-45,-3.2,Arbovirus inh repeat=5

# The last 6 entries of the section above are carried over, then new ones follow.
SMILES,Mtb growth,Mtb bLac sens,Arbovirus inh,YopH inh,RecA intein inh,others
CCn1ncc(S(=O)(=O)NCc2ccccc2Cl)c1C,x,9,x,x,2.8,
CCOCCCNc1nc2c(C)cccn2c(=O)c1/C=C1\SC(=S)N(C(C)CC)C1=O (configuration not stated),-8%,4,x,x,-4.1,
CCC(C)NS(=O)(=O)c1ccc(-c2csnn2)s1 (configuration not stated),1%,1,-5,3,-1.1,
Cc1ccc(C(=O)N/N=C/c2c(O)ccc3ccccc23)cn1,x,0,x,x,-7.8,
CCCC1CCC(c2ccc(/C(N)=N/O)cc2)CC1 (configuration not stated),-1%,-1,-25,x,x,
CCOC(=O)C1=C(C)NC(=O)NC1c1c(O)ccc2ccccc12 (configuration not stated),2%,3,3,-45,-3.2,Arbovirus inh repeat=5
C[C@H](NC(=O)OC(C)(C)C)C(=O)N/N=C/c1ccc2nccnc2c1,-9%,-12,x,x,0.2,
COc1ccc(N(C(=O)C(C)C)S(=O)(=O)c2cccc([N+](=O)[O-])c2)cc1,5%,-4,-7,x,-0.2,
Cc1ccc(CSCCNS(=O)(=O)c2ccc(C)cc2)cc1,-1%,4,20,-48,2.6,
CCOC(=O)N1CCC(NC(=O)CN2C(=O)COc3ccc(C(C)(C)C)cc32)CC1,x,4,5,-48,2.3,
CCOc1ccc(-c2cn(-c3cccc(SC)c3)c(=O)[nH]2)cc1,7%,-2,-8,-20,0.7,
COc1cccc(CN(C(=O)COc2ccc(Cl)cc2)C2CCS(=O)(=O)C2)c1 (configuration not stated),x,-9,x,x,-0.4,
CS(=O)(=O)N(CC(=O)N1CCN(Cc2ccccc2)CC1)Cc1ccccc1,-3%,4,1,-13,0.7,
Cc1ccc(NC(=O)CN(C)CC(=O)Nc2cccc(F)c2)cc1[N+](=O)[O-],2%,-6,6,x,-8.5,
Cc1ccc(CS/C(Nc2ccccc2C)=C(\C#N)C(=O)NCc2ccco2)c(C)c1,-1%,9,-3,22,2.3,
COc1ccc(Cn2c(=O)[nH]c3cc(C(=O)NCCc4ccc(S(N)(=O)=O)cc4)ccc3c2=O)cc1,-5%,3,3,x,0.2,
COC(=O)CCC(=O)Nc1cccc([N+](=O)[O-])c1,-1%,-6,24,x,-4.2,
CC(=O)OCc1c(C)cc(C)c(/C=C(/C#N)C(N)=O)c1C,-10%,-4,-6,x,-0.1,
O=S(=O)(c1ccc(Br)cc1)N1CCn2c(nc3ccccc32)C1,-4%,1,9,-44,-2.7,Arbovirus inh repeat=0
COc1ccc2c(OC)cc(-c3ccccc3)nc2c1,5%,5,-17,26,5.7,
CC1(C)CNc2cc(N)ccc2S1,-11%,-7,-10,x,14,
O=C(c1ccc(CS(=O)Cc2ccc(Cl)cc2)o1)N1CCN(c2ccccc2)CC1 (configuration not stated),x,2,x,x,-2.5,
Cn1nc(OC(=O)Nc2ccc(F)cc2)cc1C(F)(F)F,0%,-9,-1,-43,-3.6,
CCCCn1nnc(NC(=O)c2ccc(-c3cccc([N+](=O)[O-])c3)o2)n1,-1%,0,-3,x,-3.8,
Cc1cc(C)c(NC(=O)Cn2nnc(C(=O)NCc3cccs3)c2N)c(C)c1,-6%,-4,-7,-31,2.0,
Cc1ccc(S(=O)(=O)Nc2ccc3c(c2)nc(CCN2CCOCC2)n3C)cc1,-5%,3,x,x,0.2,
Cc1cc(NC(=O)c2cccc(Cl)c2)n[nH]1,x,-1,x,x,-2.3,
O=C(NCc1ccco1)C1CCN(S(=O)(=O)Cc2ccccc2)CC1,-6%,-7,1,-19,1.1,
Cn1c(O)c(C=NCCCC(=O)O)c(=O)n(C)c1=O,-10%,-27,3,11,-4.5,
Oc1c(C(c2cccs2)N2CCN(c3ccc(F)cc3)CC2)sc2ncnn12 (configuration not stated),1%,-3,14,-19,-1.3,Arbovirus inh repeat=12
CSc1ccc(CCNS(=O)(=O)c2c(C)[nH]c(C)c2C(=O)N2CCCCC2)cc1,x,-1,x,x,1.3,
COCCSc1ccccc1C(=O)Nc1ccc2c(c1)OCCO2,9%,-3,-3,4,2.1,
CNc1c([N+](=O)[O-])cnn1-c1cccc(Cl)n1,7%,3,11,x,1.7,
COc1ccccc1-n1c(SCC(N)=O)nc2sc3c(c2c1=O)CCC3,8%,1,x,x,-0.1,
CCOc1ccc(N2C(=O)CC(Sc3ncccn3)C2=O)cc1 (configuration not stated),-4%,-12,5,-6,2.6,
Nc1[nH]n2c(=O)c3c(nc2c1N=Nc1ccccc1)CCCC3,79%,96,-15,-21,24,
O=C(O)C(Cl)(Cl)Cl,-6%,-1,x,x,-0.5,
N#Cc1ccc(Cl)cc1NC(=O)COC(=O)[C@H](CCC(N)=O)NC(=O)c1ccc(F)cc1,-9%,4,3,-15,4.3,
COCCNc1nc(C)c(C(C)=O)s1,-5%,0,3,x,1.0,
CC1CCCN(C(=O)c2ccc(COc3ccccc3Br)cc2)C1 (configuration not stated),6%,69,8,-17,5.5,
COc1ccc(N=Cc2sc3ccccc3c2Cl)cc1,66%,1,-9,-36,-0.2,
Cc1ccccc1Cn1nnc(C(=O)Nc2ccc3c(c2)OCCO3)c1N,x,-2,x,x,-3.3,
S=c1[nH]nc(-c2cccnc2)n1/N=C/C=C/c1ccccc1,2%,-4,-4,-26,2.9,
O=C(O)CCCCCN1C(=O)/C(=C\c2ccncc2)SC1=S,8%,42,13,6,4.1,
O=S1(=O)CCO[C@H]2Cc3ccccc3[C@H]2N1Cc1ccccc1F,x,31,x,x,-1.9,
COc1ccc(C2OCC3(CO2)SC(=O)NC3=O)cc1 (configuration not stated),-1%,-3,8,-28,-2.9,
COc1cccc(Nc2c3c(nc4c(-c5ccccc5)c(C)nn24)CCC3)c1,3.4µM*,99,7,-5,4.7,
CSc1nnc(Cc2cc(=O)[nH]c(=O)[nH]2)n1-c1cccc(C)c1,-6%,4,11,-29,x,
COc1ccc(OC)c(NC(=O)COC(=O)/C=C/c2ccccc2Cl)c1,0%,4,1,-26,-0.3,
O=C1c2ccccc2C(Nc2ccccc2F)N1c1cccnc1 (configuration not stated),-6%,4,-2,-47,-2.5,
COc1cccc(C(=O)NCC(c2cccnc2)N2CCN(c3ccccc3OC)CC2)c1 (configuration not stated),x,2,-7,-26,-2.4,Arbovirus inh repeat=0
Cc1ccc(COc2coc(CN3CCN(C(=O)c4ccco4)CC3)cc2=O)cc1,x,2,x,x,-1.0,
CCCOc1ccc(OCCNC2CCCC2)cc1,8%,-4,-13,-28,-0.2,
S=C(c1ccc(-c2ccc(Cl)cc2)o1)N1CCCCC1,37%,99,24,5,12,
COC(=O)c1cc(S(=O)(=O)Nc2nn(C)c3cccc(F)c23)oc1C,11%,-8,x,x,x,
COc1ccccc1-n1cnc2cc(NCc3ccccc3O)ccc21,0%,1,x,x,7.2,
COc1cc(/C=C/C(=O)O)cc(S(=O)(=O)NCC2CCCO2)c1OC (configuration not stated),-5%,-7,x,x,-0.7,

# The list is partial; rates above refer to the full screens.
